Screens: PubChem BioAssay, Broad Institute
Vaccinia stage: Vaccinia orthopox stage-specific inhibition; Vaccinia-infected cells, mCherry/Venus stage reporter fluorescence; stronger effect = lower value; some inactives read as strong as hits; activity change (mCherry), % (no concentration beside the values); 0.01% of 89,000 active; AID 1053133;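 active = mCherry past -33% and 40 or more points under the early reporter, replicates agreeing; inconclusive = past -33% without that gap or agreement; tested in A549 cells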;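 also: scaled between vehicle wells and reference inhibitor wells; 23 nL library stock went into each well; one replicate is shown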
Vaccinia stage Venus: further read-out of Vaccinia stage, marked with its call; activity change (Venus), %; measured here: Venus reporter, other viral stage;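 negative = less Venus signal; first of two replicates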
* marks the source's active call; other numbers are inactive results; ? = inconclusive; . = no result given. Not all compounds are listed (hit frequency here may not be typical).

Every second line gives: Vaccinia stage Venus, Vaccinia stage
C[C@@H]1CN([C@@H](C)CO)C(=O)c2cc(NC(=O)Nc3cccc4ccccc34)ccc2O[C@@H]1CN(C)Cc1ccc(C(=O)Nc2ccccc2N)cc1
 : 12, 23
O=C(C[C@H]1C=C[C@@H](NC(=O)C2CC2)[C@H](CO)O1)NC1CCC1
 : 8, 4
CN(C)CCCNC(=O)[C@H]1[C@H](CO)[C@H]2Cn3c(ccc(C4=CCCC4)c3=O)[C@H]2N1CCC(F)(F)F
 : 5, -5
CN(C)CC(=O)Nc1ccc2c(c1)[C@H]1C[C@H](CC(=O)N3CCN(C)CC3)O[C@H](CO)[C@H]1O2
 : 9, 18
CCCNC(=O)N1CC(=O)N2[C@H](CO)[C@H](c3ccc(-c4ccc(F)cc4)cc3)[C@H]2C1
 : -9, -6
O=C(C[C@@H]1C[C@@H]2c3cc(NC(=O)CC4CC4)ccc3O[C@@H]2[C@H](CO)O1)NCc1cccc(F)c1
 : -3, 1
O=C(N[C@@H]1C=C[C@H](CC(=O)N2CCc3ccccc3C2)O[C@@H]1CO)C1CCC1
 : -13, -6
C[C@@H]1CN([C@@H](C)CO)C(=O)c2cc(NC(=O)Nc3ccc(C(F)(F)F)cc3)ccc2O[C@@H](C)CCCCO[C@@H]1CN(C)S(=O)(=O)c1cccs1
 : 7, 6
CCCNC(=O)C[C@@H]1CC[C@@H]2[C@H](COC[C@H](O)CN2Cc2ccncc2)O1
 : 11, 12
CCC(=O)Nc1ccc2c(c1)C(=O)N(C)[C@H]1CC[C@H](CC(=O)NCC3CC3)O[C@H]1CO2
 : 12, 20
COCC#Cc1ccc([C@H]2[C@H]3CN(C(=O)Nc4ccc(F)cc4)CC(=O)N3[C@H]2CO)cc1
 : 1, 15
CC(C)C#Cc1ccc2c(c1)O[C@H](CN(C)C(=O)c1cccc(F)c1)[C@H](C)CN([C@H](C)CO)S2(=O)=O
 : ., ?
C[C@H](CO)N1C[C@H](C)[C@@H](CN(C)Cc2ccc(C(=O)Nc3ccccc3N)cc2)Oc2c(NC(=O)c3ccncc3)cccc2C1=O
 : 13, 7
C[C@H]1CN([C@@H](C)CO)C(=O)c2cc(/C=C/c3ccccc3)cnc2O[C@H]1CN(C)C(=O)Cc1cccnc1
 : 3, 11
COc1ccc(S(=O)(=O)Nc2ccc3c(c2)C(=O)N([C@@H](C)CO)C[C@@H](C)[C@H](CN(C)C(=O)c2ccncc2)OCCCC[C@@H](C)O3)cc1
 : 10, 18
C[C@H]1CCCCO[C@H](CN(C)C(=O)CCC(F)(F)F)[C@@H](C)CN([C@@H](C)CO)C(=O)c2cc(NC(=O)NC3CCCCC3)ccc2O1
 : ., ?
COCC#Cc1cnc2c(c1)C(=O)N([C@@H](C)CO)C[C@H](C)[C@H](CN(C)S(=O)(=O)c1ccccc1)O2
 : 15, 17
O=C(c1ccccc1)N1C[C@@H]2[C@H](c3ccccc31)[C@@H](CO)N2C(=O)CN1CCOCC1
 : 2, 13
Cc1ccc(S(=O)(=O)Nc2ccc3c(c2)CC(=O)N([C@@H](C)CO)C[C@H](C)[C@@H](CN(C)Cc2ccc(C(=O)Nc4ccccc4N)cc2)O3)cc1
 : 10, 21
C[C@H](CO)N1C[C@H](C)[C@H](CN(C)Cc2ccccc2)Oc2ncc(-c3cc4ccccc4o3)cc2C1=O
 : ., ?
C[C@@H]1CCCCO[C@H](CN(C)C(=O)Cc2ccccc2)[C@@H](C)CN([C@H](C)CO)C(=O)c2cc(NC(=O)Nc3ccc(F)cc3)ccc2O1
 : 8, 7
CN(C)C(=O)c1cccc(-c2ccc([C@@H]3[C@H](CO)N4CCCCN(C(=O)C5CCCC5)C[C@@H]34)cc2)c1
 : -1, -3
CCCC#Cc1ccc([C@H]2[C@H](CO)N3C(=O)CN(C(=O)c4ccccn4)C[C@@H]23)cc1
 : 19, 32
Cc1ccc(-c2cnc3c(c2)C(=O)N([C@@H](C)CO)C[C@@H](C)[C@@H](CN(C)C(=O)CN(C)C)O3)cc1
 : -11, -28
C[C@@H]1CN([C@@H](C)CO)C(=O)CCCn2nncc2CO[C@H]1CN(C)C(=O)OCc1ccccc1
 : 22, 14
CCCN(C)C[C@H]1OCCCC[C@@H](C)Oc2ccc(NC(=O)CCC(F)(F)F)cc2C(=O)N([C@H](C)CO)C[C@H]1C
 : -6, -8
C[C@H](CO)N1C[C@H](C)[C@@H](CN(C)Cc2ccc(Oc3ccccc3)cc2)Oc2ccc(NC(=O)CCCN(C)C)cc2C1=O
 : -17, -28
CCCNC(=O)[C@H]1[C@H](CO)[C@H]2Cn3c(ccc(C4=CCCC4)c3=O)[C@H]2N1C(=O)CC1CC1
 : 11, 18
C[C@@H]1CN([C@@H](C)CO)C(=O)c2cc(NS(C)(=O)=O)ccc2O[C@@H](C)CCCCO[C@H]1CN(C)C(=O)CCC(F)(F)F
 : 12, -3
C[C@H](CO)N1C[C@H](C)[C@@H](CN(C)S(=O)(=O)c2cn(C)cn2)Oc2ccc(NC(=O)Nc3ccc(F)cc3)cc2C1=O
 : 10, 15
C[C@@H]1CCCCO[C@H](CN(C)S(=O)(=O)c2ccccc2)[C@H](C)CN([C@H](C)CO)C(=O)c2cc(NC(=O)Cc3ccccc3)ccc2O1
 : ., ?
C[C@H]1CN([C@@H](C)CO)S(=O)(=O)c2ccc(-c3ccncc3)cc2O[C@@H]1CN(C)Cc1ccccn1
 : -25, -28
C[C@@H]1CN([C@@H](C)CO)C(=O)c2cc(NS(=O)(=O)c3cn(C)cn3)ccc2O[C@@H](C)CCCCO[C@@H]1CN(C)C(=O)CCC(F)(F)F
 : 8, 19
C[C@H](CO)N1C[C@H](C)[C@@H](CN(C)Cc2ccc(Oc3ccccc3)cc2)Oc2c(NC(=O)C3CCOCC3)cccc2C1=O
 : -21, -30
COc1ccc(S(=O)(=O)Nc2ccc3c(c2)C(=O)N([C@@H](C)CO)C[C@@H](C)[C@@H](CN(C)Cc2ccc(Oc4ccccc4)cc2)O3)cc1
 : ., ?
C[C@@H]1CN([C@@H](C)CO)S(=O)(=O)c2ccc(/C=C/c3ccccc3)cc2O[C@H]1CN(C)C
 : -13, -14
C[C@@H]1CN([C@H](C)CO)S(=O)(=O)c2ccc(C#C[C@@H](C)O)cc2O[C@H]1CN(C)Cc1ccc(-c2ccccc2)cc1
 : ., ?
CC(C)CN(C[C@H]1N[C@H](CO)[C@@H]1c1ccccc1)C(=O)CN(C)C
 : -3, 3
CCCNC(=O)N1C[C@H]2[C@@H](c3ccccc31)[C@@H](CO)N2C(=O)Nc1ccccc1F
 : -2, 4
COc1ccc(S(=O)(=O)N(C)C[C@@H]2OCCCC[C@H](C)Oc3ccc(NC(=O)Cc4ccccc4)cc3C(=O)N([C@H](C)CO)C[C@H]2C)cc1
 : 1, 1
Cc1ccccc1S(=O)(=O)N1[C@@H]2c3cccc(=O)n3C[C@H]1[C@H](CO)[C@H]2C(=O)N1CCOCC1
 : 2, 1
CC(C)NC(=O)Nc1ccc2c(c1)CC(=O)N([C@H](C)CO)C[C@H](C)[C@H](CN(C)C(=O)NC1CCCCC1)O2
 : -2, 6
Cn1cnc(S(=O)(=O)N[C@@H]2C=C[C@H](CC(=O)NCC3CCCCC3)O[C@@H]2CO)c1
 : 6, 17
CC=Cc1ccc2n(c1=O)C[C@@H]1[C@@H](CO)[C@H](C(=O)NCCC)N(Cc3cccc(F)c3)[C@H]21 (mixture of isomers)
 : 1, 2
C[C@H](CO)N1C[C@H](C)[C@H](CN(C)C(=O)Nc2ccccc2)Oc2ccc(NC(=O)Cc3ccccc3)cc2C1=O
 : 6, 6
O=C(N[C@H]1CC[C@H](CCn2cc(C3(O)CCCC3)nn2)O[C@H]1CO)C1CCOCC1
 : 18, -4
CC(=O)N(C)C[C@@H]1Oc2cc(-c3cccnc3)ccc2S(=O)(=O)N([C@H](C)CO)C[C@H]1C
 : 9, 27
CC(C)NC(=O)Nc1cccc2c1O[C@H](CN(C)C(=O)Nc1ccc3c(c1)OCO3)[C@H](C)CN([C@H](C)CO)C2=O
 : 3, 2
CNC[C@@H]1Oc2c(N)cccc2C(=O)N([C@@H](C)CO)C[C@H]1C
 : 11, 13
C[C@@H]1CN([C@H](C)CO)C(=O)c2ccccc2-c2ccccc2CO[C@@H]1CN(C)Cc1cccnc1
 : 5, 17
CN(C)CC(=O)N1C[C@H]2[C@@H](c3ccccc31)[C@@H](CO)N2C(=O)c1ccccn1
 : -4, -2
C[C@H]1CN([C@@H](C)CO)S(=O)(=O)c2ccc(-c3cccnc3)cc2O[C@H]1CN(C)C(=O)C1CCCCC1
 : 7, -5
COCCNC(=O)C[C@@H]1C[C@@H]2c3cc(NC(=O)Nc4ccccc4)ccc3O[C@@H]2[C@@H](CO)O1
 : 4, 10
O=C(Nc1ccc2c(c1)OCO2)N[C@H]1CC[C@H](CCNC(=O)C2CCOCC2)O[C@H]1CO
 : 6, 16
C[C@@H]1CN([C@@H](C)CO)S(=O)(=O)c2ccc(/C=C/c3ccccc3)cc2O[C@@H]1CN(C)Cc1ccccc1
 : ., ?
CCCC(=O)Nc1ccc2c(c1)C(=O)N(C)[C@@H]1CC[C@H](CC(=O)NCC3CC3)O[C@H]1CO2
 : 1, 5
C[C@H](CO)N1C[C@H](C)[C@H](CN(C)S(C)(=O)=O)Oc2ccc(NC(=O)Nc3cccc4ccccc34)cc2CC1=O
 : 6, 19
CN1CCN(C(=O)C[C@H]2CC[C@@H]3[C@@H](COc4ccc(NC(=O)C5CCC5)cc4C(=O)N3C)O2)CC1
 : 11, 20
C[C@H]1CCCCO[C@H](CN(C)Cc2ccc3c(c2)OCO3)[C@@H](C)CN([C@@H](C)CO)C(=O)c2cc(NC(=O)Nc3ccccc3)ccc2O1
 : ., ?
CCNC(=O)[C@@H]1[C@@H](CO)[C@@H]2Cn3c(ccc(-c4cccc(F)c4)c3=O)[C@H]1N2C(C)=O
 : 3, 11

Additional compounds follow:
Every second line gives: Vaccinia stage Venus, Vaccinia stage
CCC(=O)NC[C@H]1[C@@H](c2ccccc2)[C@H](CO)N1C(=O)C1CC1
 : -3, 6
COCC(=O)Nc1ccc2c(c1)OC[C@@H](C)N(C(=O)Cc1cccnc1)C[C@H](C)[C@H](OC)CN(C)C2=O
 : 21, 13
CO[C@H](CN(C)S(=O)(=O)c1cn(C)cn1)[C@H](C)CN(C(=O)Nc1ccc(F)cc1)[C@H](C)CO
 : 13, 15
C/C=C/c1cnc2c(c1)C(=O)N([C@H](C)CO)C[C@H](C)[C@H](CN(C)C(=O)c1ccc3c(c1)OCO3)O2
 : 13, 27
COc1ccc(S(=O)(=O)N[C@H]2C=C[C@@H](CC(=O)NCCc3ccccc3)O[C@@H]2CO)cc1
 : -5, -1
C[C@H](CO)N1C[C@H](C)[C@H](CN(C)C(=O)Nc2ccccc2)Oc2ccc(NC(=O)Cc3cn(C)c4ccccc34)cc2CC1=O
 : 9, 12
COc1ccc(-c2ccc([C@@H]3[C@H](CO)N4C(=O)CN(C(=O)NC(C)C)C[C@@H]34)cc2)cc1
 : -3, 0
COc1cccc(S(=O)(=O)N[C@@H]2CC[C@@H](CC(=O)NCc3ccncc3)O[C@@H]2CO)c1
 : 11, 8
N#C[C@H]1[C@@H](c2ccccc2-c2cccc(F)c2)[C@@H](CO)N1C(=O)C1CCCCC1
 : 1, 8
O=C(c1ccccc1)N1C[C@@H]2[C@H](c3ccccc31)[C@H](CO)N2C(=O)Nc1ccccc1Cl
 : 0, 6
COc1ccc(S(=O)(=O)N(C)C[C@@H]2OCCCC[C@@H](C)Oc3ccc(NS(=O)(=O)c4ccc(Cl)cc4)cc3C(=O)N([C@@H](C)CO)C[C@H]2C)cc1
 : ., ?
CNC[C@@H]1Oc2c(NC(=O)c3nc4ccccc4s3)cccc2C(=O)N([C@H](C)CO)C[C@H]1C
 : 11, -1
COc1ccc(NC(=O)N[C@H]2CC[C@H](CC(=O)NC3CCCCC3)O[C@@H]2CO)cc1
 : 7, 1
C[C@@H]1CCCCO[C@@H](CN(C)C(=O)Nc2ccc(C(F)(F)F)cc2)[C@H](C)CN([C@@H](C)CO)C(=O)c2cc(NC(=O)c3ccccc3)ccc2O1
 : -12, -23
C/C=C/c1cnc2c(c1)C(=O)N([C@H](C)CO)C[C@H](C)[C@@H](CN(C)Cc1ccc(F)cc1)O2
 : -3, -5
CO[C@@H]1CN(C)C(=O)c2ccc(NC(=O)c3ccc4c(c3)OCO4)cc2OC[C@@H](C)NC[C@@H]1C
 : 0, -10
C[C@@H]1CN([C@H](C)CO)C(=O)c2cc(NS(=O)(=O)c3ccccc3)ccc2O[C@@H]1CN(C)S(C)(=O)=O
 : 8, 0
CC=Cc1ccc2n(c1=O)C[C@H]1[C@H](CO)[C@@H](C(=O)NCCC)[C@@H]2N1C(=O)C1CCCC1 (mixture of isomers)
 : 8, 18
C[C@@H]1CN([C@@H](C)CO)C(=O)c2cc(NC(=O)Nc3ccc4c(c3)OCO4)ccc2O[C@@H](C)CCCCO[C@@H]1CN(C)S(=O)(=O)c1ccc(F)cc1
 : -5, 2
O=C(NCC1CC1)[C@H]1[C@H](CO)[C@H]2Cn3c(ccc(-c4ccc(F)cc4)c3=O)[C@@H]1N2
 : -2, -1

5 entries from above, reformatted.
mol | Vaccinia stage Venus | Vaccinia stage
COCC(=O)Nc1ccc2c(c1)OC[C@@H](C)N(C(=O)Cc1cccnc1)C[C@H](C)[C@H](OC)CN(C)C2=O | 21 | 13
C[C@@H]1CCCCO[C@@H](CN(C)C(=O)Nc2ccc(C(F)(F)F)cc2)[C@H](C)CN([C@@H](C)CO)C(=O)c2cc(NC(=O)c3ccccc3)ccc2O1 | -12 | -23
COc1ccc(S(=O)(=O)N[C@H]2C=C[C@@H](CC(=O)NCCc3ccccc3)O[C@@H]2CO)cc1 | -5 | -1
N#C[C@H]1[C@@H](c2ccccc2-c2cccc(F)c2)[C@@H](CO)N1C(=O)C1CCCCC1 | 1 | 8
CO[C@H](CN(C)S(=O)(=O)c1cn(C)cn1)[C@H](C)CN(C(=O)Nc1ccc(F)cc1)[C@H](C)CO | 13 | 15
